Assay outcomes deposited in PubChem BioAssay by Broad Institute.
A1 inhib = blocks A1 activity | MEF A1-2A-BIM cells, caspase-Glo luminescence, 3 h; percent of clofoctol signal, DMSO as zero | caspase activation, % (test concentration not listed) | hit rate 0.51% among 21,000;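 active = most replicate scores above 10, or exactly half above 10 with mean activity above 10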;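 note: effector caspase 3 and 7 activity cleaving a DEVD luciferin substrate; 50 nL library stock added to about 30 µL; numbers are from one replicate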
BJeLR viability = lowers viability of BJeLR cells; viability loss activity score, % (no concentration beside the values); AID 2275; hit rate 0.64% among 30,000; BJeLR fibroblasts viability, CellTiterGlo ATP luminescence, 48 h; HRASV12, hTERT and SV40 LT/ST transformed; in the data active = viability loss activity score above about 50%; about a fifth of its hits are not listed in these tables;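 note: higher score means fewer live cells and less ATP luminescence; stock transfer was 50 or 100 nL into about 30 µL; 0% = vehicle wells and 100% = a reference killing control; one replicate is shown; the record names a cut of 85%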
* marks the source's active call; other numbers are inactive results; . = no result given. A portion of the library; rates above refer to the full screens.

The line under a structure holds: BJeLR viability | A1 inhib
CC1CCC(NC(=O)c2oc(=O)c3ccccc3c2-c2ccccc2)CC1 (stereo not drawn)
 : -4.0 | .
Nc1ccc(-c2nc3ccccc3s2)cc1
 : -0.5 | -5.3
CCOC(=O)NC1(Nc2ccccc2Cl)Oc2ccccc2O1
 : 1.4 | .
C[C@H](CO)N1C[C@H](C)[C@H](CN(C)Cc2ccc(-c3ccccc3)cc2)Oc2ccc(NC(=O)Nc3ccc4c(c3)OCO4)cc2C1=O
 : -3.4 | 0.6
C[C@@H]1CN([C@H](C)CO)C(=O)c2cc(NC(=O)Nc3ccc(C(F)(F)F)cc3)ccc2O[C@H]1CN(C)Cc1ccc(C(=O)Nc2ccccc2N)cc1
 : -0.3 | .
Cc1ccc(S(=O)(=O)N(C)C[C@H]2Oc3ccc(NC(=O)Cn4cnnn4)cc3C(=O)N([C@H](C)CO)C[C@H]2C)cc1
 : 0.6 | 0.5
C[C@@H]1CN([C@H](C)CO)C(=O)c2cc(NC(=O)Nc3ccc4c(c3)OCO4)ccc2O[C@@H]1CN(C)C(=O)NC1CCCCC1
 : -1.9 | -0.3
Cc1ccc(Nc2nc(C)cc(C)n2)c(Br)c1
 : -4.1 | -1.5
C[C@@H]1CN([C@H](C)CO)C(=O)c2cccc(NC(=O)C3CCCCC3)c2O[C@@H]1CN(C)Cc1ccc(-c2ccccc2)cc1
 : 2.3 | .
COc1ccc(CC(=O)Nc2cccc(-c3nc4cc5ccccc5cc4[nH]3)c2)cc1
 : 36 | -6.9
C[C@H]1CN([C@@H](C)CO)C(=O)c2cccc(NC(=O)c3ccc(-c4nccs4)cc3)c2O[C@@H]1CN(C)S(C)(=O)=O
 : 0.2 | .
COC(=O)NCCOc1ccc(C)cc1
 : 2.9 | -0.3
C[C@@H]1CN([C@@H](C)CO)C(=O)c2cc(NC(=O)Nc3ccc(C(F)(F)F)cc3)ccc2O[C@H]1CN(C)Cc1ccc(Cl)c(Cl)c1
 : 2.3 | 0.3
C[C@H]1CN([C@@H](C)CO)C(=O)c2cccc(NC(=O)Nc3ccc(C(F)(F)F)cc3)c2O[C@@H]1CN(C)S(=O)(=O)c1cn(C)cn1
 : 2.2 | .
COC(=O)c1cc2oc3ccccc3c2n1CC(=O)N1CCCc2ccccc21
 : -6.2 | 0.6
O=C(COc1ccc(Br)cc1)NCC1CCCO1 (stereo not drawn)
 : 5.6 | -0.1
COc1ccc(Cc2nnc(SCC(=O)C(C)(C)C)n2-c2ccc(F)cc2)cc1OC
 : -0.7 | 0.1
Cc1ccc(S(=O)(=O)NC(=O)N2CCC(Nc3nccc(C(F)(F)F)n3)CC2)cc1
 : -3.3 | 0.9
C[C@H]1CN([C@@H](C)CO)C(=O)c2cccc(NC(=O)C3CC3)c2O[C@H]1CN(C)S(=O)(=O)c1ccccc1
 : 3.7 | .
CCCCC(CC)Cn1c(=S)[nH]c2c(sc3ccccc32)c1=O (stereo not drawn)
 : -0.7 | -0.2
Cc1ccc(S(=O)(=O)Nc2ccc3c(c2)C(=O)N([C@H](C)CO)C[C@@H](C)[C@H](CN(C)S(=O)(=O)c2ccccc2)O3)cc1
 : 4.0 | -0.1
COc1ccc(C(=O)OC(C)CN(C)C)cc1 (stereo not drawn)
 : -0.3 | .
C[C@H]1CN([C@@H](C)CO)C(=O)c2cc(NC(=O)C3CCCCC3)ccc2O[C@H]1CN(C)C(=O)Nc1ccc(C(F)(F)F)cc1
 : -0.6 | 0.0
COc1ccc(CN(C)C[C@H]2Oc3c(NS(=O)(=O)c4ccc(C)cc4)cccc3C(=O)N([C@H](C)CO)C[C@H]2C)cc1
 : 4.4 | .
Cc1cc(CSc2cc(C)c(Cl)cc2C)no1
 : -4.0 | 0.2
O=C(c1ccc(NC2=NC3CS(=O)(=O)CC3S2)cc1)N1CCCCC1 (stereo not drawn)
 : -3.2 | 0.7
Cc1ccc(S(=O)(=O)C2(C(=O)N(C)C3CCCCC3)CC2)cc1
 : -0.1 | .
Cc1ccc(S(=O)(=O)N(C)C[C@@H]2Oc3c(NC(=O)Nc4cccc5ccccc45)cccc3C(=O)N([C@@H](C)CO)C[C@H]2C)cc1
 : 0.3 | .
C[C@H](CO)N1C[C@H](C)[C@H](CN(C)C(=O)Nc2ccc(F)cc2)Oc2ccc(N(C)C)cc2C1=O
 : 3.9 | -0.3
O=C(c1ccco1)N1CCN(CCN2CCOCC2)CC1
 : -5.4 | .
CCC(=O)Nc1cccc(-c2nnc3c4ccccc4c(C)nn23)c1
 : -0.8 | .
CN(C(=O)CN1N=C(c2ccc(Cl)cc2)CCC1=O)c1ccccc1
 : 1.6 | 1.2
Cc1noc(C)c1S(=O)(=O)Nc1cccc2c1O[C@H](CN(C)C(=O)Nc1ccccc1)[C@H](C)CN([C@H](C)CO)C2=O
 : -1.0 | .
CC(C)NC(=O)Nc1cccc2c1O[C@H](CN(C)C(=O)Nc1ccc(C(F)(F)F)cc1)[C@@H](C)CN([C@H](C)CO)C2=O
 : 1.8 | .
O=S(=O)(c1ccc2oc3ccc(S(=O)(=O)N4CCCCCC4)cc3c2c1)N1CCCCCC1
 : -0.8 | .
Cc1c(Br)sc2sc(-c3nn(C)cc3Br)c(C)c12
 : -1.0 | -0.2
COc1ccc(C)cc1NC(=S)NC12CN3CN(CN(C3)C1)C2
 : -1.7 | .
Cc1oc2c(c1C(=O)NCCC(C)C)C(=O)c1ccccc1C2=O
 : 32 | -1.5
Cc1ccc(S(=O)(=O)n2c(C)cc(C(=O)O)c2C)cc1
 : -6.8 | 0.2
C[C@H](CO)N1C[C@H](C)[C@@H](CN(C)Cc2ccccc2)Oc2ccc(NC(=O)Nc3ccc(F)cc3)cc2C1=O
 : -3.3 | -0.4
O=C(c1ccccc1)N1CCN(c2ccccc2)CC1
 : 3.1 | 0.0
C[C@@H]1CN([C@H](C)CO)C(=O)c2cccc(NC(=O)Nc3ccc4c(c3)OCO4)c2O[C@@H]1CN(C)C(=O)Nc1ccc(F)cc1
 : -7.1 | .
C[C@H](CO)N1C[C@H](C)[C@H](CN(C)C)Oc2c(NS(=O)(=O)c3ccc(F)cc3)cccc2C1=O
 : 1.8 | .
COc1ccc(S(=O)(=O)Nc2ccc3c(c2)C(=O)N([C@H](C)CO)C[C@H](C)[C@H](CN(C)C(=O)Nc2ccc(F)cc2)O3)cc1
 : 1.4 | -0.3
C[C@H]1CN([C@@H](C)CO)C(=O)c2cccc(NS(=O)(=O)c3ccccc3)c2O[C@H]1CN(C)C
 : -5.5 | .
C[C@H]1CN([C@@H](C)CO)C(=O)c2cc(NC(=O)Nc3ccc(F)cc3)ccc2O[C@@H]1CN(C)C
 : 0.8 | 0.1
Cc1noc(C)c1NC(=O)Nc1cccc2c1O[C@H](CN(C)Cc1ccc(Cl)c(Cl)c1)[C@@H](C)CN([C@H](C)CO)C2=O
 : -3.5 | .
N#Cc1c(N)c2ccccn2c1C(=O)c1ccc(Br)cc1
 : 3.6 | 0.9
COC(=O)c1cccc2oc3cc(CO)cc(O)c3c(=O)c12
 : -0.4 | 0.6
C=Cc1c(S(C)(=O)=O)sc(C(=O)Oc2ccccc2)c1C
 : -5.7 | -0.9

Reformatted tab-delimited: six of the compounds above
SMILES	BJeLR viability	A1 inhib
COc1ccc(S(=O)(=O)Nc2ccc3c(c2)C(=O)N([C@H](C)CO)C[C@H](C)[C@H](CN(C)C(=O)Nc2ccc(F)cc2)O3)cc1	1.4	-0.3
C[C@H]1CN([C@@H](C)CO)C(=O)c2cccc(NS(=O)(=O)c3ccccc3)c2O[C@H]1CN(C)C	-5.5	.
C[C@H]1CN([C@@H](C)CO)C(=O)c2cc(NC(=O)Nc3ccc(F)cc3)ccc2O[C@@H]1CN(C)C	0.8	0.1
Cc1noc(C)c1NC(=O)Nc1cccc2c1O[C@H](CN(C)Cc1ccc(Cl)c(Cl)c1)[C@@H](C)CN([C@H](C)CO)C2=O	-3.5	.
N#Cc1c(N)c2ccccn2c1C(=O)c1ccc(Br)cc1	3.6	0.9
COC(=O)c1cccc2oc3cc(CO)cc(O)c3c(=O)c12	-0.4	0.6

The listing continues:
The line under a structure holds: BJeLR viability | A1 inhib
S=C(Nc1ccccc1)c1ccccc1
 : 5.5 | -0.8
CCc1ccccc1NC(=O)C(C)(C)CC
 : 1.7 | 0.4
CC(C)Cc1nn(-c2ccccc2)cc1/C=C1\Cc2ccccc2C1=O
 : -0.1 | .
CN(C)/C=C/C(=S)c1cccs1
 : -0.7 | -0.3
Cc1ccc(S(=O)(=O)Nc2ccc3c(c2)C(=O)N([C@H](C)CO)C[C@H](C)[C@H](CN(C)C(=O)NC(C)C)O3)cc1
 : -0.9 | 0.3
Cc1ccc(S(=O)(=O)N2CCCC(C(=O)NCCc3ccccc3)C2)cc1 (stereo not drawn)
 : 2.7 | -0.3
CC(C)C(NS(=O)(=O)c1cccs1)C(=O)NC1CCCCCC1 (stereo not drawn)
 : -1.4 | .
COc1ccc(NC(=O)C2(N(Cc3ccccc3)C(=O)Cc3nc(N)n[nH]3)CCCCC2)cc1
 : 0.4 | 0.1
O=C(NC(NCc1ccccc1Cl)(C(F)(F)F)C(F)(F)F)c1ccccc1
 : -3.0 | .
COc1ccc(S(=O)(=O)Nc2cccc3c2O[C@@H](CN(C)Cc2ccc(Cl)c(Cl)c2)[C@H](C)CN([C@@H](C)CO)C3=O)cc1
 : -1.0 | .
Cc1noc(C)c1S(=O)(=O)Nc1cccc2c1O[C@H](CN(C)Cc1ccc(C(=O)O)cc1)[C@@H](C)CN([C@H](C)CO)C2=O
 : 0.5 | .
C[C@@H]1CN([C@H](C)CO)C(=O)c2cc(NS(=O)(=O)c3cn(C)cn3)ccc2O[C@@H]1CN(C)Cc1ccc(-c2ccccc2)cc1
 : -2.4 | 0.4
CCOC(=O)c1ccc(/C=N/O)[n+](Cc2ccccc2)c1
 : -5.2 | -0.4
Cc1ccc(-c2ccc(=O)n(CC(=O)N3CCCCC3)n2)cc1
 : -4.6 | 0.0
O=c1oc(-c2ccccn2)nc2ccccc12
 : -1.5 | -4.9
C[C@H]1CN([C@@H](C)CO)C(=O)c2cccc(NC(=O)c3cnccn3)c2O[C@H]1CN(C)Cc1ccccc1
 : -0.6 | .
Cc1noc(C)c1NC(=O)Nc1ccc2c(c1)C(=O)N([C@@H](C)CO)C[C@H](C)[C@@H](CN(C)S(C)(=O)=O)O2
 : 4.2 | 0.1
Cc1ccc(Nc2nc(N)nc(CC(=O)CSc3nc4ccccc4s3)n2)cc1
 : 9.5 | 0.2
COc1cc(NCCCC(C)N)c2ncccc2c1 (stereo not drawn)
 : 5.1 | -0.4
CCN1CCN(c2sc(S(C)(=O)=O)nc2S(=O)(=O)c2ccc(Cl)cc2)CC1
 : 0.8 | -0.3
CC(C)NC(=O)c1ccccc1NC(=O)CN1C(=O)c2cccc3cccc1c23
 : -5.7 | 0.7
CCN(C(=O)Cn1c(=O)n(Cc2ccc3c(c2)OCO3)c(=O)c2ccccc21)c1cccc(C)c1
 : 1.4 | .
Cc1ccc(S(=O)(=O)Nc2cccc3c2O[C@@H](CN(C)C(=O)Nc2ccc(F)cc2)[C@@H](C)CN([C@H](C)CO)C3=O)cc1
 : -3.9 | .
CCCCC[C@H](CC(=O)NO)C(=O)N[C@H](C(=O)N1CCC[C@H]1CO)C(C)C
 : -6.5 | 1.7
CCN(CC)c1nc(Cl)nc(N(C)C#N)n1
 : -0.7 | -0.9
COc1cccc(CN2CCN(Cc3ccc(F)cc3)C2c2ccc(SC)cc2)c1 (stereo not drawn)
 : 4.1 | .
O=S(=O)(c1cccs1)n1ccnc1
 : 6.2 | .
C[S+](O)c1ccc(CSc2nc(-c3ccc(F)cc3)c(-c3ccncc3)[nH]2)cc1 (stereo not drawn)
 : -0.9 | 0.1
O=C(O)CNC(=S)N(Cc1cccs1)C1CCCCC1
 : -1.7 | -0.1
CCCNC(=O)Cn1nc(C)c2sc3ccccc3c2c1=O
 : -7.1 | 1.0
Nc1nc2ccc(Cl)cc2c(-c2ccccc2)c1CN1CCOCC1
 : -0.2 | -1.7
CNC[C@@H]1Oc2ccc(NS(=O)(=O)c3cccs3)cc2C(=O)N([C@H](C)CO)C[C@@H]1C
 : -1.2 | -0.2
C[C@@H]1CN([C@H](C)CO)C(=O)c2cc(NC(=O)Cn3cnnn3)ccc2O[C@H]1CN(C)C(=O)Nc1cccc2ccccc12
 : -5.6 | -0.2
CC(C)NC(=O)N(C)C[C@@H]1Oc2c(cccc2N(C)C)C(=O)N([C@H](C)CO)C[C@H]1C
 : -8.9 | .
Nc1nc2ccc(-c3nc4ccccc4o3)cc2s1
 : 5.0 | -3.2
CCc1cccc(NC(=O)C2CCN(c3nn4c(=O)cc(C)nc4s3)CC2)c1
 : 1.4 | 0.2
C[C@@H]1CN([C@H](C)CO)C(=O)c2cc(NS(=O)(=O)c3cccs3)ccc2O[C@H]1CN(C)S(=O)(=O)c1ccc(Cl)cc1
 : -3.6 | -0.2
CCc1c(C)c(C#N)c2nc3ccccc3n2c1-n1ccnc1
 : 1.8 | 0.7
CC(=O)OC1C(OC(C)=O)N(C(C)=O)C(=O)N1C(C)=O (stereo not drawn)
 : 9.1 | 1.3
C=Cc1ccc(O[C@@H]2O[C@H](CO)[C@@H](O)[C@H](O)[C@H]2O[C@@H]2O[C@@H](C)[C@H](O)[C@@H](O)[C@H]2O)cc1
 : 5.0 | -0.4
COc1ccc(NC(=O)Nc2cccc3c2O[C@@H](CN(C)C(=O)Nc2ccccc2)[C@@H](C)CN([C@H](C)CO)C3=O)cc1
 : -2.9 | .
COc1ccccc1OC(C)C(=O)NN (stereo not drawn)
 : -2.2 | -0.3
C[C@H](CO)N1C[C@H](C)[C@H](CN(C)C(=O)Nc2ccc(F)cc2)Oc2ccc(NS(=O)(=O)c3ccccc3)cc2C1=O
 : -2.9 | 0.2
C[C@@H]1CN([C@H](C)CO)C(=O)c2cc(NC(=O)Nc3ccc4c(c3)OCO4)ccc2O[C@@H]1CN(C)S(=O)(=O)c1cn(C)cn1
 : 2.8 | 0.3
